# Compound activity: PubChem BioAssay, National Center for Advancing Translational Sciences (NCATS)
# gsp antag: antagonists of gsp mutant (McCune-Albright syndrome); Potency, µM (series often up to 76.9 µM), without a hit: at the highest dose activity change, negative = inhibition, hits mostly inhibitors; gsp-mutant cells, cAMP HTRF, 30 min; control for the full effect not named in the record; 340,000 tested, 0.4% active; active = falling curve of any shape with a large fitted effect; inconclusive = falling curve, mostly with a smaller effect; inactive = flat or rising curve; cell line not stated here;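 further: intracellular cAMP measured with PDE inhibitor Ro 20-1724 present during compound exposure; potency means the concentration at half of the fitted maximal effect; on the % scale 0 is the no-effect control and ±100 the full control effect; nearly all actives have a fitted effect of over 65% in size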
#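 Cells, 2000/well, grown 16–24 h in DMEM 10% FBS with 0.5 mg/ml G418, then compounds plus […] (300 uM addition stock), 30 min at 37C. cAMP read by HTRF (cAMP-d2 and anti-cAMP antibody-K in lysis buffer) after 30 min RT.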
# TRPML1 ag: agonists of human TRPML1 channel; Q9GZU1; TRPML1-expressing cells, Ca2+ dye fluorescence, FDSS; host cell line not named in the record; reference of the full effect not given here; activation, % (test concentration not listed); 410,000 tested, 0.12% active; AID 624414; in the data active = activation above about 50%; inconclusive = about 30% to 50%; inactive = below about 30%; further: 0% is about no effect; the text of the record puts the active cut at 80%
# Target sequence (Q9GZU1 whole entry, looked up): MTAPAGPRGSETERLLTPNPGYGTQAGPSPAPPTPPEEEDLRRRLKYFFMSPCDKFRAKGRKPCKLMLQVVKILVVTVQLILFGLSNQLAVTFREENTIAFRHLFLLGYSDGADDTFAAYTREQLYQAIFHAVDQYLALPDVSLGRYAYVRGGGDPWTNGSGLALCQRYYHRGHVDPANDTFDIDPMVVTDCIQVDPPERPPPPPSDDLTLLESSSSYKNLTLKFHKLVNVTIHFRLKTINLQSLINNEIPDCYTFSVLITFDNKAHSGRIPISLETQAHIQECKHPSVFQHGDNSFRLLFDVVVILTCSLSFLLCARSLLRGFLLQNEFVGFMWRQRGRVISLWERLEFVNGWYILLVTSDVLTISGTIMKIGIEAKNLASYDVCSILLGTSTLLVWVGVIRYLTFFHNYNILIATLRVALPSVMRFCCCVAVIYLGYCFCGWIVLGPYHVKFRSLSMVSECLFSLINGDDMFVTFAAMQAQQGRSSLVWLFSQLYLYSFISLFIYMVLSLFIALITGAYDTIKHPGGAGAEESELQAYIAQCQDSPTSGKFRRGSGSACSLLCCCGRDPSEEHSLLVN
#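 TRPML1-DL cells, Tet-induced overnight (~16 h, 37 degrees C), loaded 45-90 min at room temperature with Ca8 no-wash calcium dye plus quencher. FDSS fluorescence: 10 s baseline, compound pin-transfer, 110 s agonist read, then EC80 54-4 (4uM final) and 110 s antagonist read.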
# Menin MLL FP FL: menin-MLL binding inhibition, fluorescein peptide | 290,000 tested, under 10 active | Fluorescence polarization, fluorescein-MLL peptide displacement from menin | FP activity change, % at 61.4 µM; inconclusive = falling polarisation curve, or a change in total fluorescence; inactive = total fluorescence flat and polarisation flat or rising; no compound was filed as active; the % refers to the polarisation; negative = inhibition;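 further: % of control where 0% means no effect; inhibitors lower the polarisation; unlabelled MLL peptide was the positive control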
# TRPML1 blocker: blocks the human TRPML1 channel | activity change, negative = inhibition, % (concentration not given with the values) | TRPML1-inducible cells, Ca2+ dye fluorescence, FDSS; stronger effect = lower value; inhibition of EC80 agonist-evoked calcium signal | 390,000 tested, 0.02% active | AID 624415 | Q9GZU1; in the data active means activity change below about -50%; inconclusive means about -30% to -50%; inactive means above about -30%;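 further: stimulus is agonist 54-4 at its EC80 concentration; on the % scale 0 is the no-effect control and ±100 the full control effect; compound concentration not given in the record; the text of the record puts the active cut at -80%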
#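 Tet-induced TRPML1-DL cells loaded with Ca8 no-wash calcium dye were read kinetically on FDSS. Compound addition was followed by EC80 agonist 54-4 (4 uM final); inhibition was read over 110 s.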
# gsp agonist: activates gsp, the McCune-Albright syndrome mutation; 340,000 tested, 0.13% active; gsp mutant cells, cAMP HTRF, 30 min; control for the full effect not named in the record; AID 624287; Potency, µM (top dose mostly 76.9 µM), for the others: top-dose activation (cAMP increase), most hits filed as activators; active = well fitted activation curve with a large enough effect; inconclusive = small, poorly fitted or top-dose-only effect, or another doubt; inactive = no such curve, though single readings can be large or run the other way; cell line not stated here;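 further: phosphodiesterase inhibitor Ro 20-1724 added with compounds to block cAMP breakdown; potency means the concentration at half of the fitted maximal effect; nearly all actives have a fitted effect of over 60% in size; about a fifth of the inactives were tested at one dose only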
#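 Cells in DMEM/10% FBS with G418 were pretreated with compounds in DMSO plus […] (300 uM stock) for 30 min at 37C. cAMP was measured by HTRF (cAMP-d2 plus anti-cAMP antibody-K) after 30 min at room temperature.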
# ClpP mod: qHTS Assay for Activators of ClpP; purified B. subtilis ClpP, FRET peptide cleavage, 20 min; Potency, µM (doses to about 57.5 µM), without a hit: at the highest dose activity change, negative = active; 340,000 tested, 1.9% active; active = well fitted falling curve with a large enough effect; inconclusive = small, poorly fitted or top-dose-only effect; inactive = no such curve, though single readings can be large or run the other way; further: potency means the concentration at half of the fitted maximal effect; the source files actives as falling curves though it sought activators and does not explain the sign; nearly all actives have a fitted effect of over 65% in size; many hits overshoot -100%
# Target sequence (P80244 whole entry, looked up): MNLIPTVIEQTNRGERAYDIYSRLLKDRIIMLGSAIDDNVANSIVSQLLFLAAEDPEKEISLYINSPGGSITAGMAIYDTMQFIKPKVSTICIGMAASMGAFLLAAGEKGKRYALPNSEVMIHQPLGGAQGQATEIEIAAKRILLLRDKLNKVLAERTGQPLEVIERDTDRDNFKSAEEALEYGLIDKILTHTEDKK
#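 Purified B. subtilis ClpP, 10 microg/mL final in Tris/HCl pH8 with KCl, BSA, glycerol and Tween-20, cleaved an Abz/nitrotyrosine-quenched decapeptide. Fluorescence (ex 320, em 430) was read at 0 and 20 min at room temperature. Delta was normalized to 5.8 microM ADEP and DMSO/no-enzyme controls.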
# Active calls of the source: *; ? = inconclusive; . = no result given; & = joins results of further samples; [ ] = dose if it differs, or a comment.
SMILES,gsp antag,TRPML1 ag,Menin MLL FP FL,TRPML1 blocker,gsp agonist,ClpP mod
O=C1CC(c2ccccc2)CC(=O)N1c1ccc(C(F)(F)F)cc1,5%,0.4,.,10,22%,-1.8%
Cc1cccc(N2CCN(C(=O)Cn3c(-c4cccs4)cc4ccccc43)CC2)c1C,.,1.0,.,3,.,16µM*
CCOc1ccc(N(CC(=O)NC2CC2)S(=O)(=O)c2ccc(C)cc2)cc1,7%,-0.5,2.3,-8,-45%[inhibitor],.
N#Cc1c(Sc2ncc(C(F)(F)F)cc2Cl)nsc1C/C=N\OCc1ccccc1Br,-13%,2.7,16,6,-8%,1.0%
CC1(C)Cc2nc(NC3CCCCC3)c(C#N)cc2CO1,14%,-1.4,-1.1,16,-5%[15.4 µM],-1.0%
COc1ccccc1CCNS(=O)(=O)c1cc2c3c(c1)C(C)C(=O)N3CCC2 (stereo not drawn),11%,1.4,.,-10,27%,-0.5%
COc1ccc(CN(CC(O)COCc2ccccc2)S(=O)(=O)c2ccccc2Br)cc1OC (stereo not drawn),-5%,1.4,.,3,.,-3.6%
CCCCc1noc2c1/C(=N\O)CC(c1ccccc1)C2 (stereo not drawn),2%,0.9,1.9,11,-28%,-0.9%
Cc1ccc(CNC(=O)c2c[nH]n3c(=O)c(Cc4ccc(F)cc4Cl)c(C)nc23)cc1,.,2.8,.,-9,.,4.0%
O=C(N=Nc1c(O)[nH]c2ccc([N+](=O)[O-])cc12)c1cc(-c2ccccc2Cl)nc2ccccc12,5%,3.6,7.2,-11,-44%[inhibitor],-1.0%
COc1ccc(C2CC(C(F)(F)F)n3nc(C(=O)Nc4ccc5c(c4)OCO5)cc3N2)cc1 (stereo not drawn),-3%,-0.1,-0.8,-6,7%,-4.6%
Cc1ccc(CNS(=O)(=O)c2ccc(F)c(C(=O)Nc3ccc(C)c(F)c3)c2)cc1,.,3.0,.,11,.,-2.9%
CCc1ccc(C(=O)NC(=S)Nc2ccc(N3CCOCC3)cc2)cc1,-13%,1.3,-1.9,4,?,-0.3%
O=C1OCC(c2ccccc2)=C1c1ccccc1,3%,-1.2,0.4,-28,-1%[15.4 µM],35µM*
CC(C)(C)OC(=O)C[C@H]1C/C=C\C[C@@H](CC(=O)N[C@@H](CO)Cc2ccccc2)C(=O)N2CCC[C@H]2COC1=O,-8%,-0.4,.,3,.,0.9%
CC(=O)c1cccc(S(=O)(=O)N2CCCC(c3nc4c(nnn4Cc4ccccc4Cl)c(=O)[nH]3)C2)c1 (stereo not drawn),-7%,0.5,-1.8,36,10%[15.4 µM],.
O=C(NCc1ccco1)C(=O)NCC1OCCN1S(=O)(=O)c1ccc(F)cc1 (stereo not drawn),1%,-0.8,5.1,38,-1%,3.5%
O=C(CSc1nnc(-c2cccs2)o1)N1CCCc2ccccc21,5%,0.4,3.8,0,?,-8.4%
COc1cc(C2C(C(=O)OC(C)C)=C(C)Nc3[nH]c(=O)[nH]c(=O)c32)ccc1O (stereo not drawn),13%,-0.2,2.0,2,7%,-0.9%
CCOC(=O)c1cnc2c(C)c(Cl)ccc2c1N1CCN(CC)CC1,-5%,0.1,1.0,-16,8%[15.4 µM],-1.0%
CC(=O)N1N=C(c2ccccc2)CC1c1ccccc1 (stereo not drawn),-8%,0.0,-5.7,2,-9%[15.4 µM],0.3%
CN(C)S(=O)(=O)c1cccc(NC(=S)N/N=C/c2ccc(O)c(O)c2O)c1,-20%,-0.3,6.8,1,-15%[15.4 µM],.
COc1cc(OC)cc(C(=O)NNC(=O)c2cc(S(=O)(=O)N3CCOCC3)ccc2F)c1,1%,-0.6,.,?,-12%,-7.0%
CN(Cc1ccccc1)S(=O)(=O)c1ccc(F)c(C(=O)Nc2cc(Cl)cc(Cl)c2)c1,.,1.4,.,8,.,?
CCCn1c(SCC(=O)N2c3ccccc3Sc3ccccc32)nc2c1c(=O)n(C)c(=O)n2C,3%,3.1,2.2,0,?,-0.1%

# Two entries picked at random from those above:
SMILES,gsp antag,TRPML1 ag,Menin MLL FP FL,TRPML1 blocker,gsp agonist,ClpP mod
O=C1CC(c2ccccc2)CC(=O)N1c1ccc(C(F)(F)F)cc1,5%,0.4,.,10,22%,-1.8%
COc1ccc(C2CC(C(F)(F)F)n3nc(C(=O)Nc4ccc5c(c4)OCO5)cc3N2)cc1 (stereo not drawn),-3%,-0.1,-0.8,-6,7%,-4.6%

# The results go on.
SMILES,gsp antag,TRPML1 ag,Menin MLL FP FL,TRPML1 blocker,gsp agonist,ClpP mod
CCOC(=O)C1CCN(CC(=O)N(CC(C)C)c2c(N)n(CC(C)C)c(=O)[nH]c2=O)CC1,5%,0.6,19,-13,3%,-0.1%
CC(=NN=C(C)c1ccc(O)cc1)c1ccc(O)cc1,-19%,0.7,.,10,?,.
COc1ccc(CNC(=O)CN2C(=O)CCn3nc(-c4ccccc4)cc32)c(OC)c1,.,-0.7,.,-8,.,1.7%
CCCCOc1ccc(C(=O)OCC(=O)Nc2cc(C)c(C)cc2[N+](=O)[O-])cc1,79%[activator],-0.1,-0.5,-1,2%,-0.7%
Cc1ccc(NC(=O)Nc2nnc(SCC(=O)N3CCCCC3)s2)cc1,.,2.1,.,5,.,-2.7%
Cc1ccc(S(=O)(=O)Oc2ccc(/C=N/NC(=O)c3c(Cl)cnn3C)cc2)cc1,-14%,2.0,3.0,63,17%,-2.9%
CC(C)C(NC(=O)OCc1ccccc1)C(=O)N1CCOCCOCCOCC1 (stereo not drawn),-1%,-0.6,4.2,-2,-36%[inhibitor],.
COc1cc(Cl)c(C)cc1NC(=O)C1CCN(c2nc3ccccc3n3cccc23)CC1,.,1.5,.,-16,.,-1.8%
Cc1cc(/C=C2/SC(=O)NC2=O)c(C)n1-c1ccc(N2CCOCC2)cc1,?,1.1,4.9,-14,-35%[inhibitor],2.9%
CC1(C)CC(=O)C2=C(C1)N(c1ccc(F)cc1)C(=O)C2(NC(=O)c1ccccc1F)C(F)(F)F (stereo not drawn),-7%,-0.4,.,-1,-8%,0.9%
O=C(CCc1nnc2ccc(NCc3ccco3)nn12)N1CCN(c2ccccc2F)CC1,-14%,1.0,.,-8,?,-3.2%
Cc1cc(OCc2nc(-c3ccncc3)no2)cc(C)c1Cl,6%,-0.7,-1.3,-5,10%,.
O=c1nc2n(c3cc(Cl)c(S(=O)(=O)N4CCOCC4)cc13)CCCCC2,4%,0.6,0.2,-13,20%,-0.6%
CC(C)(C)NC(=O)C(c1ccc(-c2ccccc2)cc1)N(C[C@H]1CC[C@@H]([C@@H]2CC[C@H](CO)O2)O1)C(=O)c1ccc2ccccc2c1 (stereo partly drawn),?,0.5,.,4,.,-4.2%
CCc1ccc(/C=C(\C#N)C(=O)NC2CCS(=O)(=O)C2)cc1 (stereo not drawn),12%,0.2,.,-24,13%[15.4 µM],-2.7%
CSc1nsc(SC)c1C(=O)Nc1ccc(C)cc1,-5%,2.1,1.3,2,?,-1.6%
N#CCSCC(=O)Nc1ccc(Br)cc1,11%,0.4,2.5,20,-20%,-0.6%
CCC(C)(NC(=O)CNC(C)=O)C(=O)NC1CCCCC1 (stereo not drawn),-4%,-0.7,2.0,-2,-21%,-2.0%
COc1ccc(-c2ccc(-c3noc(-c4ccccc4F)n3)c(OC)n2)cc1,15%,-0.1,-1.9,8,-31%[inhibitor],?
CCOc1cc(C(=O)OCC(=O)NC(C)c2ccccc2)ccc1OCC(=O)N1CCOCC1 (stereo not drawn),-10%,-0.3,4.8,-9,-1%[15.4 µM],.
COc1ccc(Nc2nc(OC)nc(OC)n2)cc1,-2%,0.3,-4.4,-6,-8%,-1.5%
COc1ccc(CNc2ccc(-c3ccc(OC)cc3)nn2)cc1,13%,-1.0,4.6,-4,3%,-7.0%
Cc1oc(-c2ccc(C(=O)NCc3cccc(F)c3)cc2)nc1COc1ccccc1,.,2.4,.,-6,.,?
CNC(=O)c1nc(C)n(-c2cc(Cl)cc(Cl)c2)n1,4%,-0.3,-1.3,11,-48%[inhibitor],-0.1%
CCC(=O)Nc1ccc(CC)cc1-c1nc2ccccc2n(CC(=O)c2ccc(OC)cc2)c1=O,.,-0.7,.,24,.,-0.1%

# (cont.)
SMILES,gsp antag,TRPML1 ag,Menin MLL FP FL,TRPML1 blocker,gsp agonist,ClpP mod
O=C(COc1ccccc1F)Nc1ccc(Cl)c(-c2nc3ccccc3[nH]2)c1,.,4.3,.,0,.,?
CC(=O)n1c(Cl)c(NC(=O)CCl)c2ccccc21,-17%,0.2,0.8,-1,-45%[inhibitor],1.5%
CCC(=O)N(CCC(c1ccco1)C(C)C)Cc1ccccc1 (stereo not drawn),-19%,1.4,0.1,8,3%[15.4 µM],1.0%
C/C=C(\C)c1nnc(NC(=O)c2ccco2)s1,1%,0.2,0.3,-1,1%[15.4 µM],-2.4%
O=C(O)c1cn[nH]c1-c1cccc([N+](=O)[O-])c1,11%,0.0,-4.2,-14,9%[15.4 µM],.
O=C(NC1CCCCC1)C(=S)N1CCOCC1,-3%,0.0,-2.4,-13,-52%,.
c1ccc2[nH]c(-c3ccncc3)nc2c1,.,0.2,6.7&2.9,27,28%[15.4 µM],.
CCOC(=O)N1CCC(Nc2c(NCCN3CCN(c4cccc(Cl)c4)CC3)c(=O)c2=O)CC1,4%,-0.3,2.6,1,11%,-2.6%
CC(NC(=O)c1ccccc1)c1ccc(Br)cc1 (stereo not drawn),-2%,-0.9,-5.3,34,0%[15.4 µM],.
CCCc1ccc(C(C)NC(=O)c2cnccn2)cc1 (stereo not drawn),-2%,-0.8,6.0,-4,-33%[inhibitor],-0.6%
COc1ccc(S(=O)(=O)N(C)C)cc1NC(=O)c1ccc(OCC2CCCO2)cc1 (stereo not drawn),.,-0.6,.,-17,-38%,-0.2%
Cc1ccc(S(=O)(=O)N2CCNC(=O)CC2)cc1,10%,-0.7,0.2,1,-4%[15.4 µM],.
Cn1c(N)c(S(=O)(=O)NCc2ccccc2Cl)c(=O)n(C)c1=O,2%,0.1,-5.8,31,-2%,.
O=C(OCC(=O)N1CCN(C(=O)c2ccco2)CC1)c1ccccc1NCCO,3%,0.4,.,11,-32%[15.4 µM],-23%
O=C(CCc1ccccc1)N=C1SC2CS(=O)(=O)CC2N1Cc1ccc(F)cc1 (stereo not drawn),13%,-0.7,-2.5,13,?,-0.2%
CCN1CCN(C(c2ccccc2)c2c(O)cc(C)n(Cc3ccco3)c2=O)CC1 (stereo not drawn),.,2.0,.,16,.,0.3%
Cc1ccc(C)c(NC(=O)CSc2nnc(CSc3nc(C)cc(C)n3)n2Cc2ccco2)c1,-7%,0.8,5.9,-4,-33%[inhibitor],-2.8%
Cc1ccc(S(=O)(=O)NNC(=O)c2ccc(NC(=O)C3CC3)cc2)cc1,2%,-0.4,.,8,15%,-0.5%

# Outcome played no part in choosing rows (roughly 2.1% active in at least one column).
